High-throughput results from PubChem.
TRPML1 blocker – inhibitors of human TRPML1 channel | Q9GZU1 | activity change, negative = inhibition, % (no concentration beside the values) | AID 624415 | TRPML1-inducible cells, Ca2+ dye fluorescence, FDSS; hits give low values; inhibition of EC80 agonist-evoked calcium signal | 0.02% of 390,000 active; in the data active means activity change below about -50%; inconclusive means about -30% to -50%; inactive means above about -30%;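 also: stimulus is agonist 54-4 at its EC80 concentration; % is scaled to controls: 0 for no effect and ±100 for the full control effect; compound concentration not given in the record; the text of the record puts the active cut at -80%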
Target sequence (Q9GZU1 whole entry, looked up): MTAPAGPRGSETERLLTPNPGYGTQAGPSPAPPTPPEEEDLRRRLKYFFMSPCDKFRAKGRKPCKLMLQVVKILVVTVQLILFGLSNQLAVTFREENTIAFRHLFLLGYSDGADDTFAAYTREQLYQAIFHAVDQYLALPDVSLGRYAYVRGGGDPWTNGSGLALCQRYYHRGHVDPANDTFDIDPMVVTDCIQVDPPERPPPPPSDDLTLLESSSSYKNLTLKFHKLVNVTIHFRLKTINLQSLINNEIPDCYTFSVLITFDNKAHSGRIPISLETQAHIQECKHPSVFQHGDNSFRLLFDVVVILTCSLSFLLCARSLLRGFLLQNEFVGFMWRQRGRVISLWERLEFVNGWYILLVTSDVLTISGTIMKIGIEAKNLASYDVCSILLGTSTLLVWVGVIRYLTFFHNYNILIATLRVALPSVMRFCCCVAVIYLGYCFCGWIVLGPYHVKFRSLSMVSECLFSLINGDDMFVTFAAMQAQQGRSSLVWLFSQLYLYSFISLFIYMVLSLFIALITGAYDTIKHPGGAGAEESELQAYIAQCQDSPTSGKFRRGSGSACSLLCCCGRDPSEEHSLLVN
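Tet-induced TRPML1-DL cells loaded with Ca8 no-wash calcium dye were read kinetically on FDSS. Compound addition was followed by EC80 agonist 54-4 (4 uM final); inhibition was read over 110 s.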
TRPML1 agonist – activates the human TRPML1 channel. TRPML1-expressing cells, Ca2+ dye fluorescence, FDSS; host cell line not named in the record; reference of the full effect not given here. activation, % (concentration not given with the values). 0.12% of 410,000 active. AID 624414; in the data active = activation above about 50%; inconclusive = about 30% to 50%; inactive = below about 30%; also: 0% is about no effect; the text of the record puts the active cut at 80%
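Tetracycline-induced TRPML1-DL cells are seeded and incubated overnight before loading with a no-wash Ca2+ dye and quencher. Agonist activity is taken from the 110 s fluorescence read following compound pin-transfer on an FDSS, before EC80 54-4 challenge.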
CtBP-E1A inh – CtBP/E1A binding inhibition | AlphaScreen GST-E1A/His-CtBP binding, 1536-well; hits give low values; control for the full effect not named in the record | activity change, % (test concentration not listed) | 0.49% of 340,000 active | AID 651724; in the data active means activity change below about -65%; inconclusive means about -30% to -65%; inactive means above about -30%; also: % is scaled to controls: 0 for no effect and ±100 for the full control effect; compound concentration not given in the record
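Homogeneous bead-based format: GST-tagged E1A captured on glutathione donor beads, His-tagged CtBP on nickel acceptor beads; compounds precede bead addition by 2 h at 37 °C.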
PINK1 expr mod – modulators of PINK1 expression. AID 624263. 0.2% of 410,000 active. PINK1 immunofluorescence, high-content cytometry, 24 h. Potency, µM (series often up to 76.6 µM), without a hit: at the highest dose activation (PINK1 increase), usual class: activators; active = well fitted activation curve with a large enough effect; inconclusive = small, poorly fitted or top-dose-only effect; inactive = flat fitted curve, though single readings scatter; cell line not stated here;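 also: potency is read from the fitted curve at half-maximal effect; % of control where 0% means no effect; nearly all actives have a fitted effect of over 65% in size; a mitochondrial uncoupler was the plate control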
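Fluorescence from anti-PINK1 antibody, together with nuclear and cell stains, was scanned on a laser-scanning cytometer. Before staining, stable-line cells were incubated 24 hours with compounds at 5 concentrations; primary antibody 12 h at 10 degrees C.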
D2 ag – agonists of human D2 dopamine receptor (beta-arrestin); DiscoveRx PathHunter D2 beta-arrestin, luminescence, 90 min; 100% = 57 uM dopamine signal; activation, % (concentration not given with the values); P14416; 0.084% of 360,000 active; in the data active = activation above about 40%; inconclusive = about 15% to 40%; inactive = below about 15%; also: compound concentration not given in the record; the text of the record calls up to 30% inactive
Target sequence (P14416 whole entry, looked up): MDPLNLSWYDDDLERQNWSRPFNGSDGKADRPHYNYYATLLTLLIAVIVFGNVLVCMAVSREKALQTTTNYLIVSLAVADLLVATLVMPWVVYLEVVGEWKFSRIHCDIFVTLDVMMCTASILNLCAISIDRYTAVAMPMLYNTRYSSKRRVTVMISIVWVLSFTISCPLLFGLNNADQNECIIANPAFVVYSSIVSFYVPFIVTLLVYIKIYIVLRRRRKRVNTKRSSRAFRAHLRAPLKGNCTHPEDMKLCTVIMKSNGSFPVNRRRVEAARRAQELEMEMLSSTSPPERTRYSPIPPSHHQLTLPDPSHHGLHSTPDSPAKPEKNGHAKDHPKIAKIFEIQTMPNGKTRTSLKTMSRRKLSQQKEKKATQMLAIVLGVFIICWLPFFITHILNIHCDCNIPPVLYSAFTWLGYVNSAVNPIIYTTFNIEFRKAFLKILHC
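DiscoveRx PathHunter D2 beta-arrestin cells (2,100/well) attached overnight, then compound-stimulated 90 min at 37 C in HBSS/10 mM HEPES/0.1% Tween-20 buffer; beta-galactosidase complementation read by luminescence after 1 h at ambient temperature. Dopamine 57 uM final (EC100) as control.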
Six1-Eya2 inh – inhibitors of human Six1/Eya2 interaction; Q15475+O00167; AlphaScreen GST-Six1/His-Eya2 binding, biochemical; hits give low values; control for the full effect not named in the record; activity change, % (test concentration not listed); 0.56% of 360,000 active; AID 651725; in the data active = activity change below about -65%; inconclusive = about -30% to -65%; inactive = above about -30%; also: % is scaled to controls: 0 for no effect and ±100 for the full control effect; compound concentration not given in the record
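AlphaScreen with GST-Six1 and His-Eya2 (5X mix: 250 nM and 500 nM), glutathione donor and nickel acceptor beads; buffer 50 mM Tris pH 8.0, 300 mM NaCl, 1 mM TCEP; 1 h at 37 C in the dark.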
* marks the source's active call; other numbers are inactive results; u = inconclusive; x = no result given; [ ] = another dose, or the depositor's remark.

Sample of the layout (2 entries):
SMILES	TRPML1 blocker	TRPML1 agonist	CtBP-E1A inh	PINK1 expr mod	D2 ag	Six1-Eya2 inh
O=C(Nc1ccc(Br)cc1)C1CC(c2c(F)cccc2Cl)=NO1 (stereo not drawn)	-8	0.6	11	-3.3%	2.2	6
Cc1cn(C2CCCCO2)c(=O)[nH]c1=O (stereo not drawn)	-10	-0.2	7	-1.9%	-1.8	-5

Results, previewed entries included:
SMILES	TRPML1 blocker	TRPML1 agonist	CtBP-E1A inh	PINK1 expr mod	D2 ag	Six1-Eya2 inh
O=C(Nc1ccc(Br)cc1)C1CC(c2c(F)cccc2Cl)=NO1 (stereo not drawn)	-8	0.6	11	-3.3%	2.2	6
Cc1cn(C2CCCCO2)c(=O)[nH]c1=O (stereo not drawn)	-10	-0.2	7	-1.9%	-1.8	-5
COc1ccc(N(CC(=O)Nc2ccccc2F)S(=O)(=O)c2ccc(OC)c(OC)c2)cc1	-2	0.6	5	0.3%	-6.3	-13
Cc1cn([C@H]2C[C@H](O)[C@@H](CNCc3ccccc3)O2)c(=O)[nH]c1=O	-8	-0.3	5	-1.4%	-2.3	-3
CC(NC(=O)Cn1ncc(Cl)c(Cl)c1=O)C12CC3CC(CC(C3)C1)C2 (stereo not drawn)	13	0.0	22	-2.7%	-3.6	2
O=C(c1cc([N+](=O)[O-])ccc1N1CCOCC1)N1CCN(S(=O)(=O)c2cc(Cl)ccc2Cl)CC1	-9	0.3	5	0.3%	-5.5	4
Cc1ccc(C(=O)CSc2nnc(-c3c[nH]c4ccccc34)o2)cc1	6	-0.4	1	53%[38.3 µM]	-4.4	2
CCOC(=O)NCc1ccc(S(=O)(=O)Nc2c(C)cccc2C)cc1	28	0.9	8	1.0%[38.3 µM]	1.4	5
COc1ccc(/C=C/C(=O)Nc2ccc3nc4n(c(=O)c3c2)CCCC4)cc1OC	-9	1.6	-10	-0.6%	-0.3	-12
COc1ccc(S(=O)(=O)Nc2cc3c4c(c2)CCN4C(=O)CC3)cc1	25	-0.3	8	3.1%	-3.6	-6
COc1ccc(C(C)=O)cc1Cn1c(C)c(C(=O)NCC(C)C)sc1=O	x	-1.1	1	0.6%	-0.8	3
O=C(NC1CCN(C(=O)Nc2ccccc2Cl)CC1)c1cccc(F)c1	16	-0.5	7	-0.3%	0.5	3
CN(Cc1ccco1)C(=O)C1CCC(=O)N1Cc1ccc(F)cc1 (stereo not drawn)	1	-0.1	6	0.2%	-0.2	-1
COc1cc(C(=O)NCCCNc2nc3cc(C)c(C)cc3cc2C#N)cc(OC)c1OC	-1	2.2	0	1.1%	-0.9	10
COc1ccc(C=NNC(=S)NC23CC4CC(CC(C4)C2)C3)cc1OC	24	1.6	-15	15%	-4.6	-18
O=C(NCc1ccc2c(c1)OCO2)C1CC(=O)N(c2ccc(O)cc2)C1 (stereo not drawn)	-12	1.1	-4	-1.5%	-0.6	6
CN(C)CCCOC(=O)c1sc2ccccc2c1Cl	33	1.1	0	0.4%	-1.0	-7
N#Cc1ccc(C(=O)NC(=S)NC2CCCCC2)cc1	-9	0.3	-9	0.9%	2.9	-14
O=C(NNc1ccc([N+](=O)[O-])cn1)Nc1ccc(N=Nc2ccccc2)cc1	-5	0.9	1	3.1%	6.0	-10
Cc1ccc2cc3cc(C(=O)NC4CC4)oc3nc2c1	-3	-0.1	x	4.0%	11	-2
O=C(NCc1ccco1)c1ccc(S(=O)(=O)c2cccc(S(=O)(=O)N3CCOCC3)c2)cc1	-5	0.9	-16	-3.0%	1.9	-2
O/N=C/c1cc(Br)ccc1OCc1ccc(F)cc1	14	1.5	0	-2.2%	-1.9	-1
COc1ccc(-c2c3c(=O)n(C)c(=O)n(C)c3c3n2-c2ccccc2NC3c2ccc(OC)cc2)cc1 (stereo not drawn)	5	-0.7	x	1.4%	x	x
C/C(=N\NC(N)=O)c1cc(Cl)cc(Cl)c1O	1	0.0	-6	-1.0%	5.6	-6
Cc1ccc(C(=O)N2[C@@H]3CN(C)C(=O)[C@@]2(C)[C@H]2C(=O)N(C)C(=O)[C@@H]32)cc1	2	-0.5	6	2.6%	-0.2	7
C=CCOC(=O)C1C(=O)CC(C)(O)C(C(=O)OCC=C)C1c1ccc(N(C)C)cc1 (stereo not drawn)	32	1.7	-4	-0.8%	-9.7	2
Nc1cc(=O)[nH]c(=S)n1-c1cccc(C(F)(F)F)c1	-4	0.5	0	0.6%[38.3 µM]	-0.7	0
CCOC(=O)c1cnn(-c2ncnc3sc(C)c(C)c23)c1N	21	-0.2	-5	-4.7%	0.3	7
CCNc1nc(NCC)n2c(SCC(=O)Nc3ccc(NC(C)=O)cc3)nnc2n1	-5	0.8	-1	-0.4%	-5.7	-1
CCCOc1ccc(C(C)(O)CN2CCOCC2)cc1 (stereo not drawn)	u	-0.1	1	0.5%	-5.6	13
CC(=O)Nc1ccc(C(=O)OCC(=O)NCc2ccc3c(c2)OCO3)cc1	3	0.0	2	-0.3%	0.3	0
O=C(c1ccc(Br)o1)N1CCN(Cc2ccc3c(c2)OCO3)CC1	-17	2.6	-11	-1.4%	2.0	-2
Cc1ccc(/C=C/c2nc3ccccc3n2S(=O)(=O)c2ccc(Br)cc2)cc1	9	0.6	x	1.1%	x	x
CC1=C(C(=O)Nc2ccc(C)cc2C)C(c2cccs2)n2nc(SCc3ccccc3Cl)nc2N1 (stereo not drawn)	9	-0.6	x	6.6%	x	x
CCOc1ccc(C2C(=O)N(C3CCCCC3)CC(=O)N2C2CCCC2)cc1OC (stereo not drawn)	-3	0.2	x	1.0%	x	x
CCS(=O)(=O)Nc1ccc(C2=NN(C(=O)c3ccco3)C(c3ccc(Cl)o3)C2)cc1 (stereo not drawn)	37	2.0	-13	0.0%	-4.6	-4
Cc1ccc(Cn2ccc(NC(=O)c3nc4ncccn4n3)n2)cc1	5	-0.3	-2	-1.2%	-3.4	5
Cc1csc2nc(-c3cccc(NC(=O)c4ccccc4Cl)c3)cn12	0	0.0	x	-3.0%	x	x
Cc1cccc(NC(=O)CNC(=O)c2cc(C3CC3)nn2-c2ccccc2)c1C	-9	1.1	7	0.4%	u	-1
CC1CCCCN1S(=O)(=O)Cc1ccccc1Cl (stereo not drawn)	21	0.0	10	1.6%	-0.3	6

Pulled by structure from above, four records:
SMILES	TRPML1 blocker	TRPML1 agonist	CtBP-E1A inh	PINK1 expr mod	D2 ag	Six1-Eya2 inh
CC1=C(C(=O)Nc2ccc(C)cc2C)C(c2cccs2)n2nc(SCc3ccccc3Cl)nc2N1 (stereo not drawn)	9	-0.6	x	6.6%	x	x
CC1CCCCN1S(=O)(=O)Cc1ccccc1Cl (stereo not drawn)	21	0.0	10	1.6%	-0.3	6
Cc1ccc(Cn2ccc(NC(=O)c3nc4ncccn4n3)n2)cc1	5	-0.3	-2	-1.2%	-3.4	5
CC(=O)Nc1ccc(C(=O)OCC(=O)NCc2ccc3c(c2)OCO3)cc1	3	0.0	2	-0.3%	0.3	0

Other compounds
SMILES	TRPML1 blocker	TRPML1 agonist	CtBP-E1A inh	PINK1 expr mod	D2 ag	Six1-Eya2 inh
c1ccc2ccccc2c1	1	-0.6	4	-0.6%	6.0	2
COC(=O)C(NNc1ccccc1)(NC(=O)c1cccc(F)c1)C(F)(F)F (stereo not drawn)	4	1.1	-6	1.7%	-2.1	-2
O=C1c2nc3ccccn3c2C(=O)N1Cc1ccccc1	11	-0.4	9	x	-1.4	-1
CO/N=C/CC(=O)Nc1ccc(F)cc1F	-9	0.8	14	x	0.2	7
O=C(OCCN1CCOCC1)c1cccs1	1	0.9	6	1.1%	0.4	7
O=[N+]([O-])c1cccc(/C([O-])=C(/C(=S)Nc2ccccc2)[n+]2ccccc2)c1	28	0.0	-13	-1.3%	-0.1	-5
O=C(COC(=O)c1ccc(S(=O)(=O)N2CCCCCC2)cc1)NCc1ccc(F)cc1	33	-0.4	-2	u	-1.0	5
O=C(O)c1cccc2cc(-c3ccccc3)oc(=O)c12	7	1.2	4	-1.4%	0.7	9
Cn1c(=O)c2c(nc(Br)n2Cc2ccc3ccccc3c2)n(C)c1=O	8	0.0	-5	21%[38.3 µM]	0.6	-7
CN(C(=O)CSc1nc2ccc(Br)cc2c(=O)n1Cc1ccco1)C1CCS(=O)(=O)C1 (stereo not drawn)	0	-0.9	1	-1.2%	1.8	3
COc1ccc(CCC(=O)Nc2ncc(C)s2)cc1	-22	2.2	x	0.2%	-3.8	-10
CCC(C(=O)OCC(=O)Nc1c(C)n(C)n(-c2ccccc2)c1=O)c1ccccc1 (stereo not drawn)	18	0.0	2	-0.5%[38.3 µM]	-3.5	4
Cc1ccc(NC(=O)CN2C(=O)c3ccccc3S2(=O)=O)cc1C	8	-0.6	7	u	-3.0	4
FC(F)Sc1ccc(NC(=S)NC2CCC(NC(=S)Nc3ccc(SC(F)F)cc3)CC2)cc1 (stereo not drawn)	-4	-0.6	3	11%	1.0	6
CCOCCCNC(=O)Cc1ccc(OC)c(OC)c1	-6	-0.3	2	-1.8%	-0.1	-1
CCCCSc1nc(C)c(CC(=O)O)c(=O)[nH]1	-3	0.6	4	-0.2%	-4.2	8
Cc1cccc(C=CC(=O)c2ccccc2)c1	0	1.1	9	-1.6%	-2.1	3
CN(CCOCCOc1ccc(F)cc1)Cc1ccccc1	-6	0.8	-26	0.3%	3.0	2
COCc1ccc(CN2CCCC(CO)(Cc3ccccc3)C2)o1 (stereo not drawn)	4	0.2	1	-0.6%	2.0	-7
Cc1cccc(C(C)C)c1NC(=O)CN1C(=O)NC2(CCc3ccccc32)C1=O (stereo not drawn)	-2	0.7	3	2.2%	-8.1	0
O=c1[nH]c(CO)nc2c1oc1ccccc12	12	-1.3	-4	0.5%	-6.5	-13
COC(=O)c1cnn2c(C(F)(F)F)cc(-c3ccco3)nc12	20	-0.4	-5	1.0%	-2.7	-5
Cc1cccnc1C(NC(=O)C1CCN(Cc2ccc(Cl)cc2)CC1)c1ccc(F)cc1 (stereo not drawn)	x	11	-12	8.1%	-3.6	-21
COc1ccc(CCNCC(=O)Nc2ccc(C(=O)N3CCCCC3)cc2)cc1	-3	-0.1	2	-2.2%	1.3	9
COc1cccc(NC(=O)CSCc2cc(=O)c3ccc(C)c(C)c3[nH]2)c1	1	1.7	x	0.3%	x	x
CCOC(=O)C1=C(C)Nc2ccccc2N=C1NC(=O)c1cccc(S(=O)(=O)N(C)C)c1	6	-0.4	3	0.0%	-0.9	0
O=C(COC(=O)C1CCN(S(=O)(=O)c2cccs2)CC1)NCc1ccc(F)cc1	1	-0.5	1	-1.2%	-2.4	12
Cc1ccc(C(=O)COC(=O)CCN2C(=O)C3C4CCC(C4)C3C2=O)cc1[N+](=O)[O-] (stereo not drawn)	-15	-0.5	-1	1.0%	-16	3
c1ccc2c(-c3nnc4n3CCCCC4)c[nH]c2c1	22	-0.5	7	0.0%[38.3 µM]	-3.1	1
CCN(Cc1ccncc1)C(=O)CC1C(=O)NCCN1Cc1ccc(F)c(F)c1 (stereo not drawn)	-4	1.1	12	0.5%	1.1	14
O=C(N/N=C/c1ccc(N2CCOCC2)cc1)C1CC1	16	0.0	5	-1.0%	-2.7	7
